PINK1 expr mod = changes PINK1 expression | Potency, µM (series often up to 76.6 µM), for the others: at the top dose activation (PINK1 increase), hits mostly activators | actives 0.2% (n = 410,000) | AID 624263 | PINK1 immunofluorescence, high-content cytometry, 24 h; active = well fitted activation curve with a large enough effect; inconclusive = small, poorly fitted or top-dose-only effect; inactive = flat fitted curve, though single readings scatter; cell line not stated here;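 note: potency is the fitted concentration of half-maximal effect; % of control where 0% means no effect; nearly all actives have a fitted effect of over 65% in size; a mitochondrial uncoupler was the plate control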
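Readout is PINK1 immunofluorescence, quantified alongside mitochondrial, cell and nuclear markers by laser-scanning microplate cytometry. Cells from a stable line were exposed to compound titrations (5 concentrations) for 24 hours, with CCCP controls.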
D2 potentiator = positive allosteric modulators of human D2 dopamine receptor; actives 0.23% (n = 360,000); potentiation, % (concentration not given with the values); AID 624464; P14416; DiscoveRx D2 beta-arrestin cells, luminescence, 90 min; 100% = 57 uM dopamine signal; active = potentiation of 50% or more; inconclusive = 30% to 50%; inactive = 30% or less;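 note: compound concentration not given in the record; tested on top of an EC20 dose of dopamine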
Target sequence (P14416 whole entry, looked up): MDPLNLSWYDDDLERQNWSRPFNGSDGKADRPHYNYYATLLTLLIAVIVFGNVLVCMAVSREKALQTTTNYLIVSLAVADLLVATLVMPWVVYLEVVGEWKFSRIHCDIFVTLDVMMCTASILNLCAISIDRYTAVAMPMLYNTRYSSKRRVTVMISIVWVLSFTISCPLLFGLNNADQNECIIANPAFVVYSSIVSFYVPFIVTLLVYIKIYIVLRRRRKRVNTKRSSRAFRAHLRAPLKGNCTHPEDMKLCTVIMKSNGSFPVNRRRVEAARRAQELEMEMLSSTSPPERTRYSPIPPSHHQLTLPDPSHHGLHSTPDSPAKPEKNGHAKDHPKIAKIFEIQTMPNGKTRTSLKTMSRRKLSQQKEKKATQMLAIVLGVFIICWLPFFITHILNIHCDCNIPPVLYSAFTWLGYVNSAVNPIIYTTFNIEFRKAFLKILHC
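PathHunter beta-arrestin assay in DiscoveRx D2 cells. Compounds were added with an EC20 of dopamine (50 nM final) for 90 min at 37 deg C. Luminescence was read 1 h after detection reagent, with 57 uM dopamine as the EC100 control.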
D2 agonist = agonists of human D2 dopamine receptor (beta-arrestin) | P14416 | DiscoveRx PathHunter D2 beta-arrestin, luminescence, 90 min; 100% = 57 uM dopamine signal | activation, % (test concentration not listed) | actives 0.084% (n = 360,000); in the data active = activation above about 40%; inconclusive = about 15% to 40%; inactive = below about 15%; note: compound concentration not given in the record; the text of the record calls up to 30% inactive
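Agonist mode: compounds alone added to overnight-plated D2 PathHunter cells for 90 min at 37 C, with 57 uM final dopamine (EC100) defining full response. Beta-arrestin recruitment detected by chemiluminescent reagent, read after 1 h at ambient temperature.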
TRPML1 agonist = human mucolipin-1 channel agonism; TRPML1-expressing cells, Ca2+ dye fluorescence, FDSS; host cell line not named in the record; reference of the full effect not given here; activation, % (concentration not given with the values); actives 0.12% (n = 410,000); AID 624414; in the data active = activation above about 50%; inconclusive = about 30% to 50%; inactive = below about 30%; note: 0% is about no effect; the text of the record puts the active cut at 80%
Target sequence (Q9GZU1 whole entry, looked up): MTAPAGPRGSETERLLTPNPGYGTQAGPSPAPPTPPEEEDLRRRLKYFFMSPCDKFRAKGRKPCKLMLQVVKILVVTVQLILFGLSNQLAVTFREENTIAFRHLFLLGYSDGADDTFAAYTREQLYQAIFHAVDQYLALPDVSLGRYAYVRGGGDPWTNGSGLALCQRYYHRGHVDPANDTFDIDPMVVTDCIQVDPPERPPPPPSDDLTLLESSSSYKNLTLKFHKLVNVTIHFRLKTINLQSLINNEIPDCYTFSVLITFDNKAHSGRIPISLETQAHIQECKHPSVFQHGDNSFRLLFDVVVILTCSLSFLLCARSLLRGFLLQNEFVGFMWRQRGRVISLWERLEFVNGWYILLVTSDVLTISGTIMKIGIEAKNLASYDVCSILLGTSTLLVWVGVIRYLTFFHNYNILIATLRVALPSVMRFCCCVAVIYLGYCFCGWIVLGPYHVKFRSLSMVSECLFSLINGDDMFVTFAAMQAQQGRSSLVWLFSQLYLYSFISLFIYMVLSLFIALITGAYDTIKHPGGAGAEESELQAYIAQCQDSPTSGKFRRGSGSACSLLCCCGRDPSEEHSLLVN
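Tetracycline-induced TRPML1-DL cells are seeded and incubated overnight before loading with a no-wash Ca2+ dye and quencher. Agonist activity is taken from the 110 s fluorescence read following compound pin-transfer on an FDSS, before EC80 54-4 challenge.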
Six1-Eya2 blk = inhibitors of human Six1/Eya2 interaction; actives 0.56% (n = 360,000); activity change, % (concentration not given with the values); AlphaScreen GST-Six1/His-Eya2 binding, biochemical; active compounds read low; control for the full effect not named in the record; Q15475+O00167; in the data active = activity change below about -65%; inconclusive = about -30% to -65%; inactive = above about -30%; note: % is set by controls: 0 for no effect and ±100 for the full control effect
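Six1/Eya2 binding was read as AlphaScreen signal after compounds were pinned into GST-Six1 plus His-tagged Eya2 (5X stock 250/500 nM) in pH 8.0 Tris/NaCl/TCEP buffer, beads added, then incubated 1 h, 37 C, dark.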
CtBP-E1A inh = CtBP/E1A binding inhibition; actives 0.49% (n = 340,000); AlphaScreen GST-E1A/His-CtBP binding, 1536-well; active compounds read low; control for the full effect not named in the record; activity change, % (concentration not given with the values); AID 651724; in the data active means activity change below about -65%; inconclusive means about -30% to -65%; inactive means above about -30%; note: % is set by controls: 0 for no effect and ±100 for the full control effect
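GST-E1A and His-tagged CtBP (125 nM each as 5X stock) were preincubated with pin-transferred compound for 2 h at 37 °C in the dark, then glutathione donor and nickel acceptor beads were added for 1 h before AlphaScreen reading.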
Starred values were filed as active, the others as inactive; ? = inconclusive; · = no result given; & = joins results of further samples; [ ] = remark or other dose.

SMILES	PINK1 expr mod	D2 potentiator	D2 agonist	TRPML1 agonist	Six1-Eya2 blk	CtBP-E1A inh
Cc1c(Br)cccc1NC(=O)C1(C)CCN1Cc1ccccc1OC(F)F (configuration not stated)	23%	1	-7.2	5.9	45	38
OCCN(CCO)c1ccc2ccccc2c1	-1.7%	-2	3.6	0.1	1	-6
O=C(c1cc(C2CC2)nn1-c1ccccc1)N1CCN(c2ccccn2)CC1	3.8%	-15	-4.2	2.0	-1	-22
COc1cc(OC)c(C(=O)CCCN2CCCC2)c(OC)c1	-0.2%	-29	-2.6	-0.3	0	-10
CCOC(=O)CC(=O)NC(CC(=O)OC)c1ccc(C(C)C)cc1 (configuration not stated)	1.6%	0	-6.7	-0.4	-4	8
Cc1ccc(O)c(-c2cc(C(=O)Nc3cccnc3)[nH]n2)c1	0.4%	-5	0.3	-0.6	-8	-7
Cc1cc(C)n(-c2nc3ccccc3c(=O)n2OCC#N)n1	1.6%	-2	-0.6	0.8	1	-5
CN(C)c1ccc(-c2nn3c(-c4cccnc4)nnc3s2)cc1	19%[38.3 µM]	-3	-0.6	0.2	-23	-28
O=C1C(=O)N(CC2CCCO2)C(c2ccco2)/C1=C(/O)c1ccc(F)cc1 (configuration not stated)	0.2%	4	-0.6	-0.3	5	-1
COc1ccc(CNC(=O)C2CCN(C(=O)c3ccccc3)CC2)cc1	0.6%	3	3.9	-0.3	4	7

Record cards, from the list above:
Shown for O=C(c1cc(C2CC2)nn1-c1ccccc1)N1CCN(c2ccccn2)CC1 : PINK1 expr mod: 3.8%; D2 potentiator: -15; D2 agonist: -4.2; TRPML1 agonist: 2.0; Six1-Eya2 blk: -1; CtBP-E1A inh: -22
Shown for CN(C)c1ccc(-c2nn3c(-c4cccnc4)nnc3s2)cc1 : PINK1 expr mod: 19%[38.3 µM]; D2 potentiator: -3; D2 agonist: -0.6; TRPML1 agonist: 0.2; Six1-Eya2 blk: -23; CtBP-E1A inh: -28

Carrying on.
SMILES	PINK1 expr mod	D2 potentiator	D2 agonist	TRPML1 agonist	Six1-Eya2 blk	CtBP-E1A inh
CCSS(=O)(=O)c1cccc2cccnc12	4.7%	-7	-5.8	2.7	-91*	-90*
CC1CCCN(C(=O)CSc2nnc(-c3cccnc3)n2C2CCCCC2)C1 (configuration not stated)	4.0%[38.3 µM]	-3	-1.8	-0.1	3	3
CC(=O)Nc1ccc(S(=O)(=O)N(C)CC(=O)N/N=C/c2cccs2)cc1	2.4%	1	-0.4	0.3	-8	-8
CCOc1ccc(/C=C(/NC(=O)c2ccccc2Cl)C(=O)O)cc1	-0.6%	-9	-3.7	0.1	5	0
CC(NC(=O)c1ccccc1NC(=O)c1ccccc1)C(=O)N1CCOCC1 (configuration not stated)	1.3%	7	-0.2	-0.3	0	-6
CSc1ncccc1C(=O)Nc1ccccc1N1CCOCC1	-0.9%	-8	-3.0	1.4	0	1
CC1(C)Cc2nc(N3CCOCC3)c(C#N)cc2CO1	-0.7%	7	-2.7	-0.2	5	10
CC(C)(C)c1ccc(/C=N/NC(=O)CN2CCS(=O)(=O)CC2)cc1	-0.1%	1	0.9	-0.2	2	10
O=C(O)CC12CC3CC(C1)CC(n1ncc(NCc4ccco4)c(Cl)c1=O)(C3)C2	-0.5%	-2	-2.2	-0.1	10	5
Cc1cccc(-c2sc(Nc3ccccc3)n[n+]2-c2ccccc2)c1	-0.3%	-9	-1.1	-1.0	6	-4
CCC(C)NC(=O)CN1C(=O)COc2ccc(S(=O)(=O)N3CCOCC3)cc21 (configuration not stated)	0.2%&1.1%	3	-1.1	-0.7&0.4	0	1
NC(=O)c1ccc(-n2nnnc2SCC(=O)Nc2ccccc2-c2ccccc2)cc1	-0.2%	9	2.6	-0.6	9	-7
Cc1nn(C(C)C(=O)NCCN2CCCCCC2)c(=O)c2nn(-c3ccccc3)c(C)c12 (configuration not stated)	-0.3%	-25	-9.3	-0.4	2	-6
Cc1ccc(S(=O)(=O)c2nnn3c2nc(N2CCCCC2)c2ccccc23)cc1	0.0%	11	0.9	1.4	-5	6
COc1cccc(CNc2nc3cc(-c4cccc(Cl)c4)sc3c(=O)n2C)c1	4.8%	-9	5.8	-0.2	14	0
COc1ccc2c(c1)Cc1sc(NC(=O)c3cccs3)nc1-2	3.7%	-8	-3.4	-0.2	3	3
Cc1ccc(-c2nnc(OCc3cccnc3)c3ccccc23)cc1	-0.2%	-5	-1.8	-0.5	-17	-27
Cc1cc(-c2ccccc2)nc2[nH]n(-c3ccccc3)c(=O)c12	·	-12	-4.1	1.4	?	-26
Cc1nc(-c2ccccn2)nc(N(C)c2ccccc2)c1Cl	1.8%	-7	-17	1.2	5	-4
Cc1cc(C)c(S(=O)(=O)c2cccc(Br)c2C)c(=O)[nH]1	-0.3%	-1	1.2	-1.1	0	1
CC(C)CCOC(=O)C1C2C=CC3(CN(Cc4cccs4)C(=O)C13)O2 (configuration not stated)	0.5%	-2	2.1	0.6	4	1
COc1ccc(N(CC(=O)Nc2cccc(OC)c2)S(=O)(=O)c2c(C)nn(C)c2C)cc1	0.5%	-16	0.0	0.8	0	-6
COc1cc(/C=C/C(=O)N2CC(C)OC(C)C2)cc(OC)c1OC (configuration not stated)	2.2%	-8	-2.4	-0.2	-10	-1
O=C(CN1C(=O)NC2(CCCC2)C1=O)N1CCN(S(=O)(=O)c2ccccc2Br)CC1	1.2%	-10	3.7	0.8	9	7
O=C(NCCc1cn[nH]c1)c1ccc2oc(CCc3ccccc3)nc2c1	-1.6%	-22	1.8	0.5	3	-8
Cc1ccc2nc(Cc3ccc(N)cc3)[nH]c2c1	0.8%[38.3 µM]	-7	-1.7	0.2	-1	2
O=C(O)CCSSCCC(=O)O	0.0%	-3	4.3	-0.7	3	7
CCOc1cc(N2CCOCC2)c(OCC)cc1NC(=O)Cc1cccc(OC)c1	2.5%	-4	-2.8	-0.5	-3	-7
COc1cccc(NC(=O)COC(=O)CC2CC3CCC2C3)c1 (configuration not stated)	-1.4%	-1	-0.6	-0.1	-1	0
Cc1ccc(S(=O)(=O)N(C)CCCC(=O)N2CCCCC2)cc1	0.9%	-6	-1.6	-0.5	0	·
Cc1ccc(C(=O)CSc2nnc(CNc3nc(-c4ccccc4)cs3)n2C)cc1	0.1%	-11	-1.3	0.1	?	-26
CCOC(=O)c1c(NC(=O)C2CC(Cl)=CCC2C(=O)O)sc2c1CC(C)(C)OC2 (configuration not stated)	0.7%	0	0.6	0.1	9	2
C/C(=N\Nc1ncc(Cl)cc1Cl)c1ccc(OC(F)F)cc1	2.7%	-17	2.6	-0.3	-2	4
O=C(CN1CCN(c2ccc(F)cc2)CC1)Nc1ccccc1Br	4.2%	-6	-1.7	2.5	2	4
O=C(O)CC(NC(=O)Cc1ccccc1)c1cc([N+](=O)[O-])ccc1Cl (configuration not stated)	1.6%	-1	-5.5	0.6	7	2
NC(=O)[C@@H]1CCCN1Cc1c(C(=O)N2CCN(C3CCCCC3)CC2)nc2ccccn12	-0.5%	-4	-2.2	0.8	5	-10
Cc1c(C(=O)Cc2ccccc2)n(C)c2ccccc12	4.9%	-28	-1.1	-0.1	24	17
COc1ccccc1NC(=O)C(C)N1CCN(C/C=C/c2ccccc2)CC1 (configuration not stated)	-0.5%	-13	-2.4	-1.1	-2	-4
COc1cccc(OC)c1C(=O)NC(=S)Nc1ccc2oc(-c3ccncc3)nc2c1	-1.8%	-9	0.7	1.5	2	5
COc1cc(C)ccc1OCc1cc(C(=O)N2CCN(C)C[C@@H]2c2ccccc2)no1	1.0%	-7	-1.3	0.9	-4	-8
CC(C)=N/N=C1/NC(=O)C(CC(=O)Nc2cc(Cl)ccc2C)S1 (configuration not stated)	1.1%	-36	-3.8	0.0	3	-1
O=S(=O)(Nc1ccc(N2CCOCC2)cc1)c1ccc(Cl)s1	0.5%	-3	-3.3	0.5	-6	4
CCSCC1COC(c2cccn2Cc2ccc(C)cc2)=N1 (configuration not stated)	0.9%	-15	-6.7	1.3	-25	-12
C#CCN(C[C@@H]1[C@@H](OC(=O)NCc2ccc(OC)c(OC)c2)[C@@H](OC(=O)NCc2ccc(OC)c(OC)c2)Cn2c(=O)n(CCCCCC)c(=O)n21)S(=O)(=O)c1ccc(C)cc1	1.1%	-2	-7.1	1.7	-3	2
Cc1cccc(C(=O)NCC(=O)N2CCN(S(=O)(=O)c3ccccc3)CC2)c1	0.3%	-9	-1.2	0.5	-5	5
COc1cc(NC(=O)CSCc2cnn(-c3ccccc3)c2-n2cccc2)cc(OC)c1	-1.6%	-4	-0.3	0.0	-20	-5
O=C(O)c1nnn(-c2cc(C(F)(F)F)cc(C(F)(F)F)c2)c1-c1ccccc1	-3.4%	-6	-2.8	-0.6	15	0
O=C(CSCc1c(Cl)cccc1Cl)NN1C(=O)c2ccccc2C1=O	8.2%[38.3 µM]	-12	-0.5	1.0	-4	2
CC(C)C(NC(=O)c1ccccc1)C(=O)NCCc1ccccc1 (configuration not stated)	1.3%	-12	1.1	3.8	1	1
NC(=O)c1ccc(-n2nnnc2SCc2ccccc2)cc1	-2.1%	-8	-2.1	-1.4	-3	2

New compounds follow
SMILES	PINK1 expr mod	D2 potentiator	D2 agonist	TRPML1 agonist	Six1-Eya2 blk	CtBP-E1A inh
CC(OC(=O)C1=COCCO1)C(=O)NC(C)c1ccc(Cl)cc1Cl (configuration not stated)	-4.8%	-8	7.0	1.0	9	-19
COc1ccc(CNC(=O)C2CCN(c3cc(C(=O)Nc4cccc(OC)c4)ccn3)CC2)cc1	-0.7%	4	-1.1	-1.0	-5	-10
CCOC(=O)Cc1c(C)nc2c(-c3ccccc3)c(C)[nH]n2c1=O	1.4%[38.3 µM]	-18	2.3	-0.5	-8	-2
O=c1[nH]cc(NCCc2ccccc2)c(=O)[nH]1	1.1%	-3	-0.2	0.1	2	0
O=C(CSc1cc(Cl)ccc1Cl)Nc1ccc(N2CCOCC2)cc1	-1.0%	-3	4.0	0.2	-15	-24
Cc1cccc(N(CC(O)CN2CCOCC2)S(=O)(=O)c2ccccc2)c1 (configuration not stated)	1.5%	-11	1.8	-0.1	4	-4
O=C(Cc1ccc(Cl)cc1)NCC(=O)N1CCCC1	1.6%	7	-0.8	-1.2	3	7
CCCn1c(N)c(C(=S)NC(=O)C2CC2)c(=O)n(C)c1=O	1.3%	-3	-4.9	1.6	-6	0
OC(CCN1CCOCC1)c1ccccc1 (configuration not stated)	2.0%	1	-2.4	-0.3	1	5
O=[N+]([O-])c1cccc(S(=O)(=O)Nc2cccc(-c3ccc(N4CCOCC4)nn3)c2)c1	-0.8%	1	-3.6	-0.4	0	4
COc1ccc(OCCSc2nnc(CCNC(=O)c3ccc(OC)cc3)n2C)cc1	-4.1%[38.3 µM]	-6	0.2	1.0	-4	-19
CNC(=O)c1ccc(NC(=O)c2ccc3c(=O)n4c(nc3c2)CCC4)cc1	0.1%	-2	-0.6	0.8	-8	-5

Three of the entries above in order of the Six1-Eya2 blk value, highest first:
molecule | PINK1 expr mod | D2 potentiator | D2 agonist | Six1-Eya2 blk | CtBP-E1A inh
O=C(Cc1ccc(Cl)cc1)NCC(=O)N1CCCC1 | 1.6% | 7 | -0.8 | 3 | 7
COc1ccc(CNC(=O)C2CCN(c3cc(C(=O)Nc4cccc(OC)c4)ccn3)CC2)cc1 | -0.7% | 4 | -1.1 | -5 | -10
CNC(=O)c1ccc(NC(=O)c2ccc3c(=O)n4c(nc3c2)CCC4)cc1 | 0.1% | -2 | -0.6 | -8 | -5

Screens from PubChem BioAssay.
